VDR inh: inhibitors of human vitamin D receptor; P11473; VDR-SRC2-3 peptide fluorescence polarization, 2 h; Potency, µM, for the others: max response, negative = inhibition, hits mostly inhibitors; 400,000 compounds, 0.93% hits; active = well fitted inhibition curve with a large enough effect; inconclusive = small, poorly fitted or top-dose-only effect, or another doubt; inactive = no such curve, though single readings can be large or run the other way; also: series mostly up to about 120 µM
Target sequence (P11473 whole entry, looked up): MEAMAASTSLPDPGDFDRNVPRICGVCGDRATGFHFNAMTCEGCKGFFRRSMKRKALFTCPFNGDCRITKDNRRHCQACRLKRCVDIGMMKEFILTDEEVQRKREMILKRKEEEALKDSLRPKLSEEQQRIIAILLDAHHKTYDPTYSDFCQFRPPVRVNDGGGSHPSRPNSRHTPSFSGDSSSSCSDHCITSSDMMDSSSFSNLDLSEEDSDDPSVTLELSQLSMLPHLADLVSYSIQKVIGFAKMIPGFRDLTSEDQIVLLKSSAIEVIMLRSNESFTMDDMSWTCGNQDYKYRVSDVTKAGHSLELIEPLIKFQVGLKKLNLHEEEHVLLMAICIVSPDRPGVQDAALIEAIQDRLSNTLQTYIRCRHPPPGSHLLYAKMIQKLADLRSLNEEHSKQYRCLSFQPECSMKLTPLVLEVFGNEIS
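Reagent solutions, kept cold and dark, are dispensed first; compounds are then pinned in at 23 nl, plates briefly spun, and incubated 2 h at ambient temperature. Inhibition of VDR–SRC2-3 peptide binding is read by fluorescence polarization.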
An asterisk follows results filed as active; ? = inconclusive; & = joins results of further samples; [ ] = remark or other dose. % is scaled to controls: 0 for no effect and ±100 for the full control effect; potency is read from the fitted curve at half-maximal effect. An excerpt; the hit share may differ from the screen's.

SMILES	VDR inh
C[N+](C)(N)CCOC(=O)C(O)(c1ccccc1)C1CCCCC1 (configuration not stated)	-2%
CC12CN3CCN(CC(C3)C1O)C2 (configuration not stated)	-5%
O=C1C(c2ccccc2)=C(N2CC2)c2ccccc21	3%
O=C(O)c1cc[c]([Sb](=[O])([OH])[OH])cc1[N+](=O)[O-]	-22%
C1CCC(NC2CCCCC2)CC1	-7%&6%
CC1=CC(=O)C2=C(C)C[C@@H](O)[C@@H]3[C@@H](OC(=O)[C@H]3C)[C@H]12	6%
CO[C@@H]1C[C@@H](C[C@H]2CC[C@H](C)[C@@H]([C@@H](C)C(=O)O)O2)O[C@]2(O[C@](C)([C@H]3CC[C@@](C)(C4OC([C@H]5O[C@@](O)(CO)[C@H](C)C[C@@H]5C)C[C@@H]4C)O3)C[C@H]2C)[C@@H]1C (some centres not stated)	10%
O=C(c1ccccc1F)N1CCC2(CC1)OCCO2	16%
O=C(NC1CN2CCC1CC2)c1cc(Cl)c([N+](=O)[O-])c2nc[nH]c12 (configuration not stated)	-15%
CCCCOC(=O)c1ccccc1N	4%
O=C1NC(=O)N(Cc2ccc(F)cc2)C(=O)/C1=C/c1cccs1	50µM*
CCOC(=O)c1c(C)n(C(C)C)c2ccc(OC(=O)c3ccc(N4C(=O)CCC4=O)cc3)cc12	1%
CC1(C)C(O)CC(O)[C@]2(C)C1CC(O)[C@]1(C)C2CC[C@@]2(C)C(c3ccoc3)CC3OC312 (some centres not stated)	-27%
COC(=O)CCCNC(=O)CN1CC(c2ccccc2)CC1=O (configuration not stated)	-3%
CCOc1cc2c(cc1OCC)-n1cccc1C(c1cccc([N+](=O)[O-])c1)NC2 (configuration not stated)	-26%
CCN1CCN(c2nc3c(c(=O)[nH]2)CCCC3)CC1	-1%
COc1cc(CN=C(C)c2c(O)n(C)c(=O)n(C)c2=O)cc(OC)c1	-3%
Cn1c(O)c(C=NC2CCN(Cc3ccccc3)CC2)c(=O)[nH]c1=O	15%
CCCC(Cn1cncn1)c1ccc(Cl)cc1Cl (configuration not stated)	-10%
CCCCOc1ccc(C(C)=O)cc1Cc1c(O)[nH]c(=S)[nH]c1=O	?
CC1C(=O)OC2CCN3CC=C(COC(=O)C(C)(O)C1(C)O)C23 (configuration not stated)	-7%
Cc1nc2ccccc2c(=O)n1-c1cccnc1	2%
CCCC1=Nc2cc(C(=O)NCCCN(CC)CC)ccc2Sc2ccccc21	-8%
Nc1ccccc1C(=O)OCCc1ccccc1	-11%
COc1ccc2[nH]c3c(c2c1)CCN=C3C	-7%&0%
Clc1ccc(C(OCCN2CCCCC2)c2ccccc2)cc1 (configuration not stated)	-13%&6%
CCOc1ccc2nc(NC(=O)c3cccn(Cc4ccccc4C)c3=O)sc2c1	2%
CCC/C(=N\O)c1c[nH]c2ccccc12	-8%
CN1CCN(c2ncnc3c2cnn3C)CC1	-20%
c1csc(CN2CCCC3(CCNCC3)C2)n1	-9%

5 successive records from above:
SMILES	VDR inh
Clc1ccc(C(OCCN2CCCCC2)c2ccccc2)cc1 (configuration not stated)	-13%&6%
CCOc1ccc2nc(NC(=O)c3cccn(Cc4ccccc4C)c3=O)sc2c1	2%
CCC/C(=N\O)c1c[nH]c2ccccc12	-8%
CN1CCN(c2ncnc3c2cnn3C)CC1	-20%
c1csc(CN2CCCC3(CCNCC3)C2)n1	-9%

Later entries:
SMILES	VDR inh
COc1ccc2c(CCN)c[nH]c2c1	6%&9%
COc1ccc(/C=C2\C(=O)NC(=S)N(C)C2=O)cc1C	45µM*
O=c1[nH]c(=S)n(Cc2ccc(F)cc2)c(O)c1C=NCC1CCCO1 (configuration not stated)	?
O=C(CNC(=O)c1ccc(Br)cc1)NCC(=O)OCC(=O)c1ccc([N+](=O)[O-])cc1	?
Cc1cccn2c(NCC3CCCO3)c(C(C)C)nc12 (configuration not stated)	2%
C=CC1CN2CCC1CC2C(OC(C)=O)c1ccnc2ccc(OC)cc12 (configuration not stated)	9%
CC(C)C[C@H](NC(=O)[C@H](Cc1ccccc1)NC(=O)CNC(=O)[C@H](C)NC(=O)[C@@H](N)Cc1ccc(O)cc1)C(=O)O	-4%
COC(=O)N1CCC2(CCCN(C)C2)CC1	-13%
CC(=O)O[C@@H]1/C=C/[C@](C)(O)C[C@@H](C)C/C=C/[C@H]2[C@H](O)[C@@](C)(O)[C@@H](C)[C@H]3[C@H](Cc4ccccc4)NC(=O)[C@@]312	-16%
O=C(C(=O)N1CCOCC1)c1cn(CCCOc2ccccc2)c2ccccc12	-17%
CCCOP(=O)(OCCC)C(NC(=O)c1ccccc1)=C(Cl)Cl	-17%
CCOC(=O)CC(NC(=O)C(Cc1ccc(N(CCCl)CCCl)cc1)NC(C)=O)C(=O)OCC (configuration not stated)	?
O=C(Oc1ccccc1)N1CCC[C@@]2(CCN(C(c3ccccc3)c3ccccc3)C2)C1	0%
c1ccc2nc(OCCN3CC3)ccc2c1	3%
COC(=O)C1=C(c2cc3ccccc3o2)C[C@@H]2CC[C@H]1N2C(=O)NCc1ccco1	7%
CCCCn1c(=O)c(C=Nc2ccc(Cl)cc2)c(O)n(Cc2ccco2)c1=O	2%
O=C(Cc1ccccc1)OCC(=O)N1CCN(S(=O)(=O)c2ccc(Cl)cc2)CC1	19%
COc1ccc(OCC#CCN2CCC(C)CC2)cc1	-13%
Cc1cccc(CN2CC=C(c3noc(CCC(=O)Nc4ccc(C)c(F)c4)n3)CC2)c1	11%
C=CCOC(=O)c1ccccc1N	14%
O[C@H]1CCCC[C@H]1N1CCC(c2ccccc2)CC1	11%
CN1C(=O)C(c2ccccc2)C(=O)N(C)C1=O	-8%
Cc1ccc(CN2CCN(Cc3ccccc3)CC2)cc1	1%
CCc1nn(CC(=O)N2CCC3(CC2)OCCO3)c(=O)c2cccn12	-7%
CC1[C@H]2Cc3ccc(O)cc3[C@]1(C)CCN2CCc1ccccc1 (some centres not stated)	-15%
CCc1nc(SC)ncc1C(=O)Nc1ccc(Cl)cc1C(=O)c1ccccc1	0%
COc1ccc(N2C(=O)NC(=O)/C(=C\c3cn(CC(=O)N4CCOCC4)c4ccccc34)C2=O)c(OC)c1	?
CC1CCC(C(C)C)C(OC(=O)COC(=O)c2ccccc2N)C1 (configuration not stated)	-6%
O=C(c1ccc(CS(=O)(=O)c2ccc(Br)cc2)o1)N1CCC2(CC1)OCCO2	-4%
Cc1ccc(S(=O)(=O)N2CCCC2c2cccnc2)cc1 (configuration not stated)	-11%
CCC(=Nc1ccc2c(c1)CCC2)c1c(O)n(C)c(=O)n(C)c1=O	9%
C=CCN1CC[C@]23c4c5ccc(O)c4O[C@H]2C(=O)CC[C@@]3(O)[C@H]1C5	-4%&8%&4%
CC12C=CC(=O)C=C1CCC1C2C(O)CC2(C)C1CCC2(C)O (configuration not stated)	10%
O=[N+]([O-])/C=C/c1c(Cl)cccc1Cl	20µM*
O=P(Nc1ccccc1)(Nc1ccccc1)Oc1ccc(Cl)cc1	3%
CCCC(C)CC1(CCO)C(=O)NC(=S)NC1=O (configuration not stated)	-1%
COC(=O)C1=C(c2ccc(C(C)=O)cc2)C[C@@H]2CC[C@H]1N2C(=O)NCCCOC(C)C	-10%
COc1ccccc1N1CCN(Cc2ccccc2Cl)CC1	1%
Cn1c(O)c(C=Nc2cccc(C(F)(F)F)c2)c(=O)n(C)c1=O	-6%
O=P(/C(=N/O)N1CCCCC1)(N1CCOCC1)N1CCOCC1	1%
CCOc1ccc(-c2nc3ccc(-c4nc5ccc(N6CCN(C)CC6)cc5[nH]4)cc3[nH]2)cc1	112%&43%[activator]
CN1CCc2nc(SCc3ccccc3Br)c(C#N)cc2C1	-13%
CC(=O)C1CCC2C3CCC4CC(O)CCC4(C)C3C(=O)CC12C (configuration not stated)	-1%
CC(C)=CCN1CC[C@@]2(C)c3cc(O)ccc3C[C@@H]1C2C (some centres not stated)	-22%
COc1c(/C=C2/C(=O)NC(=O)N(C)C2=O)c(CCN(C)C(=O)c2ccccc2)cc2c1OCO2	-23%

Five entries from above, arranged by molar mass, rising.
SMILES	VDR inh
O=[N+]([O-])/C=C/c1c(Cl)cccc1Cl	20µM*
C=CCN1CC[C@]23c4c5ccc(O)c4O[C@H]2C(=O)CC[C@@]3(O)[C@H]1C5	-4%&8%&4%
O=P(/C(=N/O)N1CCCCC1)(N1CCOCC1)N1CCOCC1	1%
CN1CCc2nc(SCc3ccccc3Br)c(C#N)cc2C1	-13%
COc1c(/C=C2/C(=O)NC(=O)N(C)C2=O)c(CCN(C)C(=O)c2ccccc2)cc2c1OCO2	-23%

(further entries)
SMILES	VDR inh
CN(C)c1nc(N(C)C)nc(N(C#N)CCCl)n1	-17%
O=C1CSC2(CN3CCC2CC3)N1 (configuration not stated)	11%
COC(=O)Cn1cc(C=C2C(=O)N(C)C(=O)N(C)C2=O)c2ccccc21	-17%
C[C@]12CCC3C(CC[C@H]4C[C@H](O)CC[C@]34C)C1[C@@H](O)C[C@@H]2O (some centres not stated)	2%
O=P(Nc1cccnc1)(Oc1ccccc1Cl)Oc1ccccc1Cl	-4%
COC(=O)C1=C(c2ccc3ccccc3c2)C[C@@H]2CC[C@H]1N2C(=O)N1CCCC1	-5%
C[C@@H]1C2C[C@@]34COC(=O)C3=CC=C[C@H]4[C@@]13C[C@H](c1ccoc1)O[C@@H]3O2	-18%
COc1cc([C@@H]2c3cc4c(cc3[C@@H](OC)[C@H]3COC(=O)[C@H]23)OCO4)cc(OC)c1O	-7%
CC(N)Cc1c[nH]c2c1ccc1ccccc12 (configuration not stated)	-14%
Cc1cc(OC(=O)N(C)C)n(-c2ccccc2)n1	1%
Brc1ccc(-[n+]2c(-c3ccccc3)cc(-c3ccccc3)cc2-c2ccccc2)cc1	-21%
Cc1ccccc1NC1=NCC(C)S1 (configuration not stated)	-8%
NP(=O)(Nc1ccccc1)Nc1ccccc1	17%
CC1CCCC(NC(=O)COC(=O)Cc2ccccc2)C1C (configuration not stated)	3%
COc1cc(CC2C(=O)N(C)C(=O)N(C)C2=O)ccc1OCc1ccccc1	?
COC(=O)C1=C(c2ccc(OC)c(OC)c2)C[C@@H]2CC[C@H]1N2C(=O)NCCc1ccccc1	-12%
O=C1NC(=O)N(c2ccc3c(c2)OCO3)C(=O)/C1=C/c1cccs1	79µM*
CCN1CCN(Cc2cc(Br)cc(Br)c2O)CC1	-7%
COc1ccc(CC2(CCc3ccncc3)C(=O)NC(=O)NC2=O)cc1	9%
COc1ccc(C(O)P(=O)(OC(C)C)OC(C)C)cc1 (configuration not stated)	-5%
CN(C)CCn1cnc2ccccc21	0%
CC(=O)O[C@H]1CC[C@@]2(C)C(=CC(=O)C3C2CC[C@@]2(C)C3C[C@H](OC(C)=O)[C@@H]2OC(C)=O)C1 (some centres not stated)	-11%
O=C1CN=C(c2ccccc2)c2cc(Br)ccc2N1	-13%
COc1ccc2[nH]cc(C3=CCNCC3)c2c1	-1%&-12%
C[N+](C)(C)CC1CCCC(C[N+](C)(C)C)C1=O (configuration not stated)	-20%
CN(C)CC#CCn1c2ccccc2c2ccccc21	4%
Cc1nnc2n1-c1ccc(Cl)cc1C(c1ccccc1Cl)=NC2	-1%
COC1=C[C@H]2C3=C([C@H]2C1=O)[C@H](NC(C)=O)CCc1cc(OC)c(OC)c(OC)c13	-3%
COc1cc2c(cc1OC)C1C(=O)c3ccc4c(c3OC1CO2)CC(C(C)C)O4 (configuration not stated)	-14%
Oc1c(Cl)c(Cl)c(Cl)c(Cl)c1Cl	89µM*
O=C1NC(=O)C2(CCN(c3ccccc3)CC2)C(=O)N1	-10%
COc1cc(C)cc(CN2CC=C(c3ccccc3)CC2)c1O	8%
CCc1nnc(NS(=O)(=O)c2ccc(N=Cc3c(O)n(-c4ccccc4)c(=O)[nH]c3=O)cc2)s1	-22%
Cc1ccc(S(=O)(=O)Nc2ccc3c(c2)CC(=O)N([C@H](C)CO)C[C@@H](C)[C@H](CN(C)S(=O)(=O)c2ccccc2)O3)cc1	?
CC12CCC3C(CCC4(O)CC(O)CCC34C=O)C1(O)CCC2C1=CC(=O)OC1 (configuration not stated)	-4%
CC1CCOC(=O)C=CC=CC(=O)OC2CC3OC4C5OC5(C)C(O)CC4(COC(=O)C1O)C2(C)C31CO1 (configuration not stated)	-9%
Cc1ccc(Cn2nc(C(=O)Nc3ccc(Br)cc3)cc2C)cc1	-10%
O=C(O)c1ccccc1N=Nc1c(O)[nH]c(=O)[nH]c1=O	12%
O=C1CCCN1c1ccc(S(=O)(=O)O)cc1 (tested in a mixture with another compound)	-3%
N#C/C(=C\c1ccc(O)c(O)c1)C(=O)NCCCNC(=O)/C(C#N)=C/c1ccc(O)c(O)c1	?
CC1(C)CC(n2[nH]c(=O)c3c2NC(=O)CSC3c2ccccc2)CCO1 (configuration not stated)	1%
COc1cc(C(CN)CC(=O)O)ccc1O (configuration not stated)	-11%
Cc1ccc(S(=O)(=O)N2CCCC(C(=O)N3CCC4(CC3)OCCO4)C2)cc1 (configuration not stated)	-4%
NC(N)=N/N=C/c1ccc(N2CCOCC2)cc1	-2%
CC(C)(C)N(NC(=O)c1ccccc1)C(=O)c1ccccc1	8%
CN(C)c1nc(OCCNC(=O)COc2ccc(Cl)cc2Cl)nc(N2CCCCC2)n1	6%
O=C1C2C3CCC(O3)C2C(=O)N1c1cccc(F)c1 (configuration not stated)	8%
O=[As](O)(O)c1ccc(N=Nc2ccc(O)cc2)cc1	-5%
CCn1nc(/C=C/c2ccccc2)nc2c(=O)n(C)c(=O)nc1-2	?
O=C(Nc1cccc(F)c1)N1CC2(CCNCC2)C1	40µM*
COCCN1C(=O)NC(=O)/C(=C\c2ccc(F)cc2)C1=O	-18%
Cc1ccc(NC(=O)c2cc(-c3ccccc3)n(CCCN3CCOCC3)c2C)cc1	-19%
CC(C)NC(=O)N1CC[C@@]2(CCCNC2)C1	-2%
O=C(N/N=C/c1c(O)n(-c2ccccc2)c(=O)[nH]c1=O)c1ccncc1	2%
CC(=O)Nc1ccc(N=Cc2c(O)n(Cc3ccco3)c(=O)[nH]c2=O)cc1	-4%
